Screens: PubChem BioAssay, several laboratories
YopH inh = YopH tyrosine phosphatase inhibitors, primary screen, biochemical, fluorescence Ex485/Em525; 140,000 compounds, 0.16% hits; inhibition, %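 (about 10 µM by stock and volumes)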; YopH tyrosine phosphatase [Yersinia enterocolitica]; AID 898, 2007;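 active means inhibition of 50% or more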;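 further: controls were vehicle for no effect and minimum signal wells for full effect; inactives centre near -20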
Mtb H37Rv = M. tuberculosis H37Rv growth inhibitors, H37Rv strain (AID 1626); inhibition, % at 10 µM, or IC50 in µM where a hit was titrated; 220,000 compounds, 0.95% hits; M. tuberculosis H37Rv growth inhibition; higher % means a stronger effect;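 active means confirmed in a dose series; inconclusive means inhibition above 80% but not taken into the dose series; inactive means below 80% or under 30% at every dose of the series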;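 further: bacteria incubated seven days before Alamar blue readout; 0% = bacteria only wells and 100% = bacteria with antibiotic wells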
RecA splice inh = Mtb RecA intein splicing inhibitors, primary screen, biochemical, fluorescence, HTS; 290,000 compounds, 0.75% hits; Protein RecA (Mycobacterium tuberculosis (strain ATCC 25618 / H37Rv)), P9WHJ3; inhibition, %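 (about 9 µM by stock and volumes)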; cell-free RecA intein splicing; in the data active means inhibition above about 30%; inconclusive means no clear call, values can overlap the other calls;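 further: 0% = vehicle wells and 100% = reference inhibitor control wells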
Target sequence (P9WHJ3 whole entry, looked up, canonical isoform): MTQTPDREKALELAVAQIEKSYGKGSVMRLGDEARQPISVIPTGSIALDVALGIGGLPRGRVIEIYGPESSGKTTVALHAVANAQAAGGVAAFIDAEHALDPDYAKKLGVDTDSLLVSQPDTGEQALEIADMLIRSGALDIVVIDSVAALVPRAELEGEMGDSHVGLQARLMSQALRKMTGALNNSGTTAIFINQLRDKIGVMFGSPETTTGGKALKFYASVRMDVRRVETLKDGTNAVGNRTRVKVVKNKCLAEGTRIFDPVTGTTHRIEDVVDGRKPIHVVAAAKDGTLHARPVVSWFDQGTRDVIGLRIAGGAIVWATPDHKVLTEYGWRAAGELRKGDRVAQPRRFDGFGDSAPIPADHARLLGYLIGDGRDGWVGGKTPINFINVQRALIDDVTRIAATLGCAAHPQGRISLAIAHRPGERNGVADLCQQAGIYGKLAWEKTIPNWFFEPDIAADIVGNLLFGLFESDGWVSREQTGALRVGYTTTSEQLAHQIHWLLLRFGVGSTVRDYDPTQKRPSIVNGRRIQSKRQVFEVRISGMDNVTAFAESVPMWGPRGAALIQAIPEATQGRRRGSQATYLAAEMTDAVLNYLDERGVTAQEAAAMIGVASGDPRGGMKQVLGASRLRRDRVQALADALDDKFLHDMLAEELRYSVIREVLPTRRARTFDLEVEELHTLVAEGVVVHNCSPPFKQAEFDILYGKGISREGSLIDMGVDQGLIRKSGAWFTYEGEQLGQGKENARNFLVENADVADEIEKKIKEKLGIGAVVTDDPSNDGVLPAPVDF
Arbovirus anti = antivirals against arbovirus infection, primary screen, cell-based, full library, 10K replicate subset; arbovirus infection cell-based antiviral screen; inhibition, % at 10 µM; 200,000 compounds, 0.37% hits; AID 1251, 2008;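 active means inhibition from about 30%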;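 further: bluetongue infection of BSR cells; cell survival read as ATP light after 72 h; 0% = infected wells without compound and 100% = uninfected wells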
Mtb bLac sens = beta-lactam sensitization of Mtb H37Rv, H37Rv; AID 434955, 2010; 330,000 compounds, 0.27% hits; inhibition, % at 25 µM; M. tuberculosis H37Rv growth with meropenem, percent inhibition; hits of this screen are not shown here;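 active means about 74% or more and at least 40 points above the plate without the antibiotic, then above 30% in a dose series; inconclusive means first-round hits that could not be retested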;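 further: growth measured after seven days incubation then overnight dye step; 0% = bacteria only wells and 100% = bacteria with antibiotic; twin plates without the antibiotic show which effects depend on it; some results filed as inactive read as strong as hits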
Arbovirus anti repeat = also measured in Arbovirus anti; calls as there; inhibition, %; measured here: 10K subset replicate screen; many hits read low in the repeat;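 first of two repeat runs on a subset; 0% = infected and 100% = uninfected wells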
The depositor's hits bear a star; ? = inconclusive; nt = no result given. Some of the compounds tested; count on the stated rates, not on these rows.

SMILES	YopH inh	Mtb H37Rv	RecA splice inh	Arbovirus anti	Mtb bLac sens	others
COc1ccc(-c2cn[nH]c2-c2ccc(OCc3ccc([N+](=O)[O-])cc3)cc2O)cc1OC	nt	1%	-2.4	nt	-6
Cc1cc(C)nc(SCC(=O)c2ccc([N+](=O)[O-])cc2)n1	-45	-5%	-1.1	1	7
O=C(CSc1nc(=O)[nH]c2c1CCCC2)Nc1ccc(F)cc1F	nt	nt	0.9	nt	5
CCc1c(C)c2nncn2[nH]c1=O	-20	nt	-1.6	4	7
Cc1ccc(C2NC(=O)CCC2[N+](=O)[O-])cc1 (configuration not stated)	nt	2%	-0.9	5	-2
CCOc1ccc(NC(=S)N2CCC(N(C)CCN3CCOCC3)CC2)cc1	-23	-3%	-0.9	2	-1
O=C(COC(=O)c1cnccn1)Nc1ccc(Cl)cc1C(F)(F)F	nt	nt	1.7	nt	-5
CC(C)(O)C#Cc1ccc(CN2CCN(CCc3ccccc3)C(CCO)C2)s1 (configuration not stated)	nt	0%	-2.0	0	0
CN(C1CCCC1)C1CCN(C(=O)CNC(=O)/C=C/c2ccc(F)cc2)CC1	-20	-6%	-0.7	-4	-3
C/C(=N/NC(=O)Cc1cc(=O)[nH][nH]1)c1ccc([N+](=O)[O-])cc1	-20	-4%	84*	-5	-1
Cc1onc(-c2ccccc2Cl)c1C(=O)N1CCN(C=O)CC1	nt	nt	-3.7	nt	0
CC1(C)Cc2c(sc3nc[nH]c(=O)c23)CO1	nt	-3%	-4.4	-3	-4
Cc1ccc2nc(C)cc(SCC(=O)N/N=C/c3ccco3)c2c1	nt	nt	-2.2	nt	-2
CCOC(=O)CSc1nnc(CNC(=O)c2ccc(OC)cc2)n1Cc1ccccc1	-32	-6%	nt	-3	0
CCn1c2ccccc2c2cc(/C=N/n3cnnc3)ccc21	-41	0%	-8.3	2	11
CCCC(=O)NCCCc1nc2ccccc2[nH]1	-29	2%	-0.9	6	1	Arbovirus anti repeat=3
CCOc1cc(C2NC(=O)NC(C)=C2C(=O)OCc2ccccc2)ccc1O (configuration not stated)	-47	-11%	4.1	4	-5
CCCN(CC(=O)Nc1ccccc1OC)C(C)C(=O)NC(C)CCc1ccccc1 (configuration not stated)	nt	nt	8.9	nt	-5
Cc1cc(=O)[nH]c(/N=C(\N)Nc2ccc(Oc3ccccc3)cc2)n1	nt	20%	-4.4	nt	3
NC(=O)C1CC(=O)N(c2ccc(OCc3ccc(F)cc3)cc2)C1 (configuration not stated)	nt	nt	0.4	nt	-6
COc1ccc(CCN(C)C2CCCN(S(=O)(=O)C(C)C)C2)cc1OC (configuration not stated)	nt	nt	1.2	nt	-2
C=CCS(=O)(=O)c1nc2ccccc2s1	-17	10%	14	-35	93
COc1ccc(CN(C)C(=O)Cc2ccsc2)c(OC)c1OC	nt	nt	1.5	nt	-3
Nc1ncn(CC(=O)c2ccccc2)n1	nt	1%	-0.2	3	-8

Reprinted from the part before: six compounds, then new ones.
SMILES	YopH inh	Mtb H37Rv	RecA splice inh	Arbovirus anti	Mtb bLac sens	others
Cc1cc(=O)[nH]c(/N=C(\N)Nc2ccc(Oc3ccccc3)cc2)n1	nt	20%	-4.4	nt	3
NC(=O)C1CC(=O)N(c2ccc(OCc3ccc(F)cc3)cc2)C1 (configuration not stated)	nt	nt	0.4	nt	-6
COc1ccc(CCN(C)C2CCCN(S(=O)(=O)C(C)C)C2)cc1OC (configuration not stated)	nt	nt	1.2	nt	-2
C=CCS(=O)(=O)c1nc2ccccc2s1	-17	10%	14	-35	93
COc1ccc(CN(C)C(=O)Cc2ccsc2)c(OC)c1OC	nt	nt	1.5	nt	-3
Nc1ncn(CC(=O)c2ccccc2)n1	nt	1%	-0.2	3	-8
Cc1ccc(CSc2nnc(C(F)(F)F)n2Cc2ccc(F)cc2)cc1	-15	-6%	14	-14	7
CCCc1c(C)nc(N2CCN(c3cccc(OC)c3)CC2)[nH]c1=O	nt	nt	1.0	nt	1
CC(C)Sc1nnc(NC(=O)C2CC2)s1	nt	2%	1.2	2	0	Arbovirus anti repeat=15
COc1ccc(CNC(=O)CCn2c(=O)oc3ccccc32)c(OC)c1	nt	1%	-1.6	-4	-2
CCC(=O)Nc1cccc2ccccc12	nt	13%	1.0	-7	-7
CCN(C(=O)CCS(=O)(=O)c1ccc2c(c1)oc(=O)n2C)c1ccc(OC)cc1	nt	nt	10	nt	-8
CC1=CCC(C(=O)O)C(C(=O)O)C1 (configuration not stated)	-50	-8%	-1.7	1	-2	Arbovirus anti repeat=0
COc1ccc(N2CCN(C(=O)Cn3c(=O)c4cccn4c4cccnc43)CC2)cc1	nt	nt	-0.2	nt	0
O=C(COc1ccc2ccc(=O)oc2c1)NCc1ccccn1	nt	nt	-7.8	nt	?
COc1cc(/C=N/Nc2ccccc2[N+](=O)[O-])cc(OC)c1O	nt	-1%	-3.5	-3	7
CCCC(=O)N1CCc2cc(OC)c(OC)cc2C1COc1ccccc1OC (configuration not stated)	nt	nt	6.6	nt	0
CC(=O)c1sc(-c2ccccc2)cc1N	nt	-1%	-3.2	nt	-4
Cc1c(O)c(S(=O)(=O)c2ccccc2)c(=O)n(-c2ccccc2)c1-c1ccccc1	-39	-1%	-0.1	-4	2
O=C(C1CCN(S(=O)(=O)c2cnc[nH]2)CC1)N1CCn2c1nc1ccccc12	-20	-3%	-1.9	15	1
O=C(CN1C(=O)CSC1=O)NCc1ccccc1	-5	-5%	-3.0	1	1
COc1cccc(NC(=O)C2CC2(c2cccc(OC)c2)c2cccc(OC)c2)c1 (configuration not stated)	-8	18%	4.7	-10	7
O=C(Nc1ccc(Cc2ccncc2)cc1)c1ccco1	-32	4%	-0.2	-3	6
C[C@@H](C(=O)N1CCN(C(=O)OC(C)(C)C)CC1)n1cc(CCCN=C(NC(=O)OC(C)(C)C)NC(=O)OC(C)(C)C)nn1	nt	-10%	-6.8	4	-2
CCOc1cc(N2CCOCC2)c(OCC)cc1NS(=O)(=O)c1cc(NC(C)=O)ccc1OC	nt	nt	0.9	nt	1
CCOC(=O)c1cnn(-c2ncnc3sc(C)c(C)c23)c1N	-6	-1%	3.3	-1	-7
CCOC(=O)c1cnc(-n2cc(C)cn2)nc1NCc1ccc2c(c1)OCO2	-22	60%	1.0	-1	67
c1ccc(N2CCN(c3cnc4ccccc4n3)CC2)cc1	-21	6%	-0.1	-17	16
S=C(NCc1ccncc1)NC1CCCCC1	nt	1%	2.5	0	-6
COc1ccc(CN2C(=O)c3ccccc3C2=O)cc1C(=O)OC(C)C(=O)NC(N)=O (configuration not stated)	-29	0%	1.2	-4	5
Cc1cccc(NC(=O)CSc2nc3c(oc4ccccc43)c(=O)n2-c2ccccc2)c1	21	nt	3.2	2	1
O=C(CN1C(=O)C2CC=CCC2C1=O)NC1CCCCC1 (configuration not stated)	nt	-1%	-3.6	1	-9
Cc1nn(CCOc2ccccc2)c(=O)n1-c1c(F)cccc1F	-49	1%	1.0	17	0
COC(=O)C1=NNC(C(=O)c2ccco2)C1c1ccc(OC)cc1 (configuration not stated)	nt	-9%	-1.2	-11	3
O=C(CCn1c(=S)oc2ccccc21)Nc1ccc(F)cc1	nt	5%	-0.9	-10	6
CN1CCN(CCOc2ccc(-c3ccccc3)cc2)CC1	nt	nt	1.4	nt	-5
CSc1ccc(CNC2CC2)cc1	-27	-7%	0.2	1	2
O=C(CSc1nnc(-c2cccs2)o1)OC1CCCCC1	6	2.2µM*	4.3	-8	98
NC(=O)C1(N2CCCCC2)CCN(C(=O)Nc2ccccc2C(F)(F)F)CC1	-17	-3%	1.1	-4	-19
Cc1cc(Br)c2c(c1)C(O)(N1CCCCC1C)C(=O)N2 (configuration not stated)	-27	-1%	-0.1	-2	-3
COc1ccccc1NS(=O)(=O)c1cc(NC(=O)c2cccs2)ccc1N1CCCCC1	-30	5%	8.9	2	9
CCOC(=O)C1CCCN(CC(=O)NC2=Nc3ccccc3N=C(C)C2c2ccccc2)C1 (configuration not stated)	-21	-8%	1.0	-2	-2
Cc1cc2cc(C#N)c(N3CCN(S(C)(=O)=O)CC3)nc2cc1C	9	0%	-6.7	11	-4
CCn1c(SCC(=O)N2CCN(c3ccccc3)CC2)nnc1-c1ccoc1C	-38	8%	1.6	-3	4
CCN1CCN(C(=S)Nc2cc(C(=O)OC)ccc2C(=O)OC)CC1	nt	4%	-1.1	4	4
Cc1ccc(S(=O)(=O)NCC(=O)N(CC(=O)NCC2CCCO2)Cc2ccccc2Cl)cc1 (configuration not stated)	nt	nt	2.8	nt	-5
CCC(=O)N1CCc2cc(S(=O)(=O)CCC(=O)NCCc3ccccc3)ccc21	-21	0%	-0.8	3	4
O=C(CN1CCN(c2ccc(Cl)cc2)CC1)Nc1cccc(F)c1	-45	0%	-1.5	11	2
CCOC(=O)C1=C(C)NC(SC)=NC1c1ccccc1 (configuration not stated)	-16	9%	1.3	-5	-3
COc1ccc(-c2nnc(SCc3cc(C)cc(C)c3)o2)cc1	-7	nt	2.4	12	15
CCC(=O)NC(=S)NNC(=O)COc1ccc(Br)cc1	nt	11%	4.9	-9	-2
O=C(CN1CCN(S(=O)(=O)c2ccc(Br)cc2)CC1)N/N=C/c1ccccc1C(=O)O	nt	nt	-0.7	nt	2
O=C(O)c1cccc(Nc2nc(C(F)(F)F)nc3ccccc23)c1	nt	-4%	-2.1	2	8
O=C(COC(=O)c1ccc2c(c1)OCCO2)NCCC1=CCCCC1	-3	4%	-3.6	1	2
Cc1nn(-c2ccccc2)c(C)c1/C=N/n1cnnc1	nt	1%	-1.2	3	-9
CCCOc1ccc2ccccc2c1/C=C1\SC(=O)NC1=O	nt	nt	-4.2	nt	8
COc1ccccc1/C=C/C(=O)NCC(=O)N/N=C(\CCC(=O)O)c1ccccc1	nt	-17%	0.4	8	2
Cc1cc(OCC(=O)Nc2ccc(CN3CCCCC3)cc2)ccc1Cl	nt	-1%	-4.5	4	-6
C=C(C)Cn1c(=O)c(NC(=O)c2ccccc2)c2n(c1=S)CCC2	-14	-3%	0.0	6	-7
CCC1CCCCN1CCCNC(=O)CSc1nc2nc(C)c(Cc3ccccc3Cl)c(C)n2n1 (configuration not stated)	nt	nt	6.3	nt	-2
COc1ccc(S(=O)(=O)NNC(=O)C2Cc3c(ccc4ccccc34)O2)cc1 (configuration not stated)	-43	-6%	4.9	19	1
CCOc1ccccc1OCCCNCc1ccco1	-2	-13%	-0.9	2	3
CC1CCN(C(=O)c2ccc(NS(=O)(=O)c3cccc4cccnc34)cc2)CC1	nt	nt	-0.2	nt	0
CN(CCOc1ccc(Cl)cc1)C(=O)CN1C(=O)NC2(CCCC2)C1=O	nt	nt	-3.0	nt	-6
N#Cc1ccc(C2N=C(c3ccccc3)NO2)cc1 (configuration not stated)	nt	nt	-0.4	nt	10
CCCCn1c(SCc2nc(N)nc(N3CCCCC3)n2)nc2c1c(=O)n(C)c(=O)n2C	-12	-3%	6.4	3	0

Next section
SMILES	YopH inh	Mtb H37Rv	RecA splice inh	Arbovirus anti	Mtb bLac sens	others
COc1ccc(N2C(=O)CCC(C(=O)N(C)CCc3ccccn3)C2c2ccc(OC)c(OC)c2)cc1 (configuration not stated)	nt	-9%	2.0	4	-2
O=C(c1ccc(C(F)(F)F)cc1)N1CCCCC1	-33	0%	-0.6	8	-12
Cc1ccc(OCC(=O)NCCCNC(=O)c2ccccn2)cc1	nt	nt	2.5	nt	1
CC(=O)CCC(=O)c1ccc2ccccc2c1	-27	6%	0.8	7	0
CC1CCN(C(=O)c2cc(-c3ccco3)on2)CC1	nt	nt	-1.7	nt	11
O=C(CCc1c[nH]c2ccccc12)NCCOc1ccccc1	nt	nt	0.9	nt	2
Cc1nc2ccc(Cl)cc2nc(C)/c1=N\O	3	-2%	-8.2	-9	-7
CCOP(=O)(c1ccccc1)c1nc(-c2ccccc2C)oc1NCc1ccccc1 (configuration not stated)	nt	7%	-0.1	nt	-6
C=CCN=C(C)C1=C(O)CCC1=O	-38	-7%	-1.0	6	-6
CCOC(=O)c1c(C)[nH]c(O)c1C=Nc1ccc(Cl)cc1	-5	-8%	-5.5	-2	-11
O=C(Nc1sc2c(c1C(=O)c1ccc(Cl)cc1)CCCC2)c1cccnc1	-31	18%	12	-23	89
O=C(c1ccc(Cl)s1)N1CCN(c2ncccn2)CC1	nt	-9%	3.7	nt	-4

Sorted by count of non-hydrogen atoms (low to high): part of the list above
SMILES	YopH inh	Mtb H37Rv	RecA splice inh	Arbovirus anti	Mtb bLac sens	others
Cc1nc2ccc(Cl)cc2nc(C)/c1=N\O	3	-2%	-8.2	-9	-7
CC1CCN(C(=O)c2cc(-c3ccco3)on2)CC1	nt	nt	-1.7	nt	11
O=C(Nc1sc2c(c1C(=O)c1ccc(Cl)cc1)CCCC2)c1cccnc1	-31	18%	12	-23	89
